# BJeLR lethal – kills HRASV12-expressing BJeLR cells | BJeLR (HRASV12) viability, CellTiter-Glo ATP luminescence, 48 h; reference of the scale not given here | inhibition, % (concentration not given with the values) | 0.17% of 300,000 active | AID 1554;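 active = replicate mean above 50%; inconclusive = above 50% but judged a plate artefact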;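 note: 50 nL library stock added to about 25 µL; numbers are from one replicate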
# Mtb hypoxia rep – Mtb hypoxia fluorescent reporter inhibition; M. tuberculosis hypoxia-regulated fluorescent reporter, fluorescence; fluorescence inhibition, % (test concentration not listed); 0.1% of 300,000 active; AID 1159583;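 active = 35 to 45% if threefold the growth effect, above 45% if 1.5-fold the growth effect; inactive = the rest, general growth blockers included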;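 note: wells of about 50 µL received 100 nL stock; 0% = vehicle wells and 100% = reference inhibitor wells; whole bacteria with a GFP reporter of the hypoxia response; strong numbers were not always called active; many hits fall short of the cut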
# Sa RN4220 lethal – kills Staphylococcus aureus RN4220; S. aureus RN4220 growth, OD600, 16 h; inhibition, % (no concentration beside the values); 0.33% of 330,000 active; AID 1259311;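 active = z-score of -3 or lower and OD600 up to 0.18 on both plates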;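 note: plate controls were untreated cells for no effect and reference antibiotic for full effect; stock transfer was 100 nL into about 80 µL; one replicate is shown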
# ugtP null kill – growth inhibition of S. aureus ugtP deletion strain; growth inhibition, % (test concentration not listed); 0.54% of 330,000 active; AID 1259309; S. aureus RN4220 ugtP deletion, OD600 growth, 16 h; some inactives read as strong as hits;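 active = z-score under -3 and OD600 up to 0.15 on both plates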;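 note: plate controls were untreated wells for no effect and antibiotic for full effect; wells of about 80 µL received 100 nL stock; the first replicate is given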
# PrP 5UTR inh – suppresses PrP 5' UTR mRNA reporter expression. cell-based PrP 5' UTR mRNA reporter, plate reader. inhibition, % (test concentration not listed). 0.35% of 340,000 active. AID 488862;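 active = every replicate at 50% or more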;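 note: 0 = median of the neutral control wells; tested in H4 reporter cells; numbers are from one replicate; inactives centre near -14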
# Bead autofluor – counter-screen for toxin protease inhibitors: compound fluorescence; compound autofluorescence counterscreen, microsphere flow cytometry; hits give high values; fluorescence intensity (no concentration beside the values); AID 624483; 3.1% of 360,000 active;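 active = at least 3 SD above the mean of all compounds, about 16000 in these data; inconclusive = too few beads counted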;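 note: 100 nL of 1 mM stock went into each well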
# Mtb hypoxia rep growth – further read-out of Mtb hypoxia rep, marked with its call; growth inhibition, %; measured here: M. tuberculosis growth (absorbance);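 0% = vehicle and 100% = reference antibiotic; read after six days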
# The depositor's hits bear a star; ? = inconclusive; · = not tested or not shown; & = joins results of further samples.
compound	BJeLR lethal	Mtb hypoxia rep	Mtb hypoxia rep growth	Sa RN4220 lethal	ugtP null kill	PrP 5UTR inh	Bead autofluor
COCCN=C1Sc2nc3cc4c(cc3cc2CN1CC1CCCO1)OCO4 (configuration not stated)	·	13	6	1.7	5	-25	4089
Cc1cc(SCC(=O)Nc2ccc3[nH]c(=O)[nH]c3c2)nc2ccccc12	·	6	7	3.9	-1	0	3516
FCCN(CCF)c1cccc(Cl)c1	3	11	0	1.7	1	·	·
C=CCOC(=O)C(C#N)c1nc2ccccc2nc1N1CCCC1 (configuration not stated)	6	·	·	11	-5	-14	5378
CCSc1nnc(NC(=O)C2CC2c2ccccc2)s1 (configuration not stated)	4	4	9	8.6	-9	-36	1990
N#Cc1c(-c2ccco2)nc(SCC(=O)Nc2ccc(S(N)(=O)=O)cc2)[nH]c1=O	-1	6	-2	2.4	0	·	·
COc1ccc(C(=O)/C=C/c2ccc(N3CCCCC3)c([N+](=O)[O-])c2)cc1	-14	-1	9	-7.0	6	-19	2415
CCOc1ccc(NC(=O)COC(=O)Cn2nc(C)c([N+](=O)[O-])c2C)cc1OCC	·	0	-6	-3.4	-3	-27	3554
Cc1ccc(C2=NS(=O)(=O)N(C)C(C(=O)Nc3cc(C)n(CC(=O)N4CCC(C)CC4)n3)=C2)cc1	9	0	1	8.5	-10	-21	5013
C#CCOCCOCCOCCNc1nc(N2CCN(C(=O)C(CCCCN)n3cc(C(N)CC(C)C)nn3)CC2)nc(N2CCN(C(=O)C(C(C)CC)n3cc(C(N)CO)nn3)CC2)n1 (configuration not stated)	·	13	7	0.9	-6	·	·
CCOC(=O)Cc1csc(NC(=O)CS(=O)(=O)Cc2ccccc2)n1	11	4	-2	4.1	18	-24	4584
O=C(NCc1ccccn1)C(=O)NN=C1CCCCCCCCCCC1	6	0	5	5.3	4	-18	2751
CSCCC(NC(=O)c1ccccc1Br)C(=O)NCCCn1nc(C)cc1C (configuration not stated)	-6	1	-3	7.7	5	-9	5276
O=C(COC(=O)c1ccc[nH]c1=O)NC1CCCCCC1	6	2	12	3.2	1	-5	3393
Cc1ccc(S(=O)(=O)Nc2cc(C(=O)NCCN(C)C)ccc2N2CCCC2)cc1	-10	9	5	1.0	3	-17	4731
COC(=O)c1ccc(NC(=O)C23CC4CC(C2)CC(n2cnc(Cl)n2)(C4)C3)cc1	-3	3	4	-0.3	6	-16	3148
O=C1OCC2CCCN2C(=O)C(CC(=O)N(CCO)Cc2ccccc2)CC=CCCC1Cc1ccc(F)cc1 (configuration not stated)	·	3&3&4&10&0	13&-3&7&5&10	3.1&2.1&0.4&4.1&1.5	4&3&0&4&-14	·	·
CC1CN(Cc2nc3c(c(=O)n(C)c(=O)n3C)n2Cc2ccccc2)CC(C)O1 (configuration not stated)	1	5	11	-2.0	-4	-30	6003
O=C(CSc1nc(N2CCOCC2)nc(N2CCOCC2)n1)Nc1ccccc1F	-3	0	8	-1.5	-4	-21	5766
C(=NOCCc1ccccc1)c1ccccn1	·	13	15	7.6	3	-91	3689
O=C1/C(=C/c2ccccc2)CCC1C1CCCC1 (configuration not stated)	12	·	·	6.5	16	-51	7265
COc1ccc(F)cc1C(=O)C1CCCN(C(=O)c2ccc(C(C)=O)s2)C1 (configuration not stated)	-1	7	0	5.5	9	-10	4339
O=C(NCc1ccccn1)c1ccc(Br)s1	7	3	-3	-0.3	2	-23	17043*
Cc1ncc([N+](=O)[O-])n1CCOC(=O)C12CC3CC(CC(C3)C1)C2	4	22	12	6.5	0	-2	4212
CCOc1ccc2nc(NC(=O)c3ccccn3)sc2c1	24	-8	7	4.1	-1	63*	4205
CCc1ccc(NC(=O)CSc2nc(=O)n(CCCN3CCOCC3)c3c2CCC3)cc1	19	10	17	-0.2	11	-12	?
CCOc1ccc(CN2CCN(Cc3cnc(-c4ccccc4)s3)CC2CCO)cc1 (configuration not stated)	-2	3	2	2.2	0	-2	2023
O=C(OC(C(=O)NCC1CCCO1)c1ccccn1)c1cccs1 (configuration not stated)	0	-4	10	2.4	1	9	12457
Nn1c(SCC(=O)Nc2nccs2)nnc1C1CC1	0	6	-8	3.9	9	4	4927
CCOc1ccc(S(=O)(=O)n2cc(-c3ccc(F)cc3)c(N)n2)cc1	11	8	4	3.1	11	-18	23064*

# Single records, as listed above:
# COc1ccc(F)cc1C(=O)C1CCCN(C(=O)c2ccc(C(C)=O)s2)C1 (configuration not stated) is listed as BJeLR lethal = -1; Mtb hypoxia rep = 7; Mtb hypoxia rep growth = 0; Sa RN4220 lethal = 5.5; ugtP null kill = 9; PrP 5UTR inh = -10; Bead autofluor = 4339
# CC1CN(Cc2nc3c(c(=O)n(C)c(=O)n3C)n2Cc2ccccc2)CC(C)O1 (configuration not stated) is listed as BJeLR lethal = 1; Mtb hypoxia rep = 5; Mtb hypoxia rep growth = 11; Sa RN4220 lethal = -2.0; ugtP null kill = -4; PrP 5UTR inh = -30; Bead autofluor = 6003

# Next results.
compound	BJeLR lethal	Mtb hypoxia rep	Mtb hypoxia rep growth	Sa RN4220 lethal	ugtP null kill	PrP 5UTR inh	Bead autofluor
CC(=O)ON=C1C(=O)N(Cc2ccc(C)cc2)c2ccccc21	·	5	-7	8.1	-4	·	·
O=C(CCN1CCN(c2ccccc2F)CC1)Nc1cccc(F)c1	6	8	21	-1.4	0	-12	3667
O=C(c1ccco1)N1CCCC(Nc2ccc3c(c2)OCCO3)C1 (configuration not stated)	1	3	-4	3.5	-1	-37	6688
CC1CCN(C(=O)COc2cccc3c2CCN(Cc2ccccc2)C3=O)CC1	·	6	6	14	3	0	3367
CC(C)(C)c1ccc(CSc2nc(N)cc(=O)[nH]2)cc1	5	4	9	2.6	5	-27	2954
CCn1c(CC(=O)Nc2cccc(OC)c2)nnc1SCC(=O)N1CCN(c2ccccc2)CC1	7	-16	-5	-3.4	-10	-8	11565
COC(=O)CCN(C(=O)c1ccc(OC(C)=O)cc1)c1ccccn1	-2	·	·	0.1	4	-21	3362
CCCC1c2ccc(C)n2CCN1C(=O)Nc1ccc(F)cc1 (configuration not stated)	0	-6	5	13	5	-14	5310
Cc1cccc(C)c1OCCSc1n[nH]c(N)n1	7	·	·	0.7	0	-6	2373
Cc1ccccc1NC(=S)NCCc1ccccn1	3	7	9	4.7	10	-5	4112
Clc1ccc(CSc2nncn2-c2ccccn2)cc1	-1	-8	-2	-7.5	-17	-27	23849*
CCOC(=O)c1cnc2ccc(C(=O)OC)cc2c1Nc1ccc(C(=O)O)cc1	-7	-2	1	4.1	3	-22	3102
Cc1sc(NC(=O)CSc2nnc(-c3ccccc3)o2)c(C#N)c1C	-12	16	14	6.8	6	-18	9728
CCCCN(C(=O)CCNC(=O)NC12CC3CC(CC(C3)C1)C2)c1c(N)n(CCC)c(=O)[nH]c1=O	-9	-9	0	2.4	-1	-20	5504
O=C(CCc1nc2ccccc2c(=O)[nH]1)Nc1nc(-c2cccs2)cs1	5	10	1	4.4	2	-27	6622
COCCn1c(=NC(=O)CSC(C)=O)sc2cc(F)ccc21	11	·	·	-1.8	12	-35	4186
CCC(NC(=O)NCc1ccccc1)(C(F)(F)F)C(F)(F)F	-3	13	2	3.4	1	7	2444
Cc1ccc2c(c1)N(S(=O)(=O)c1ccc3c(c1)NC(=O)CC(=O)N3)CCO2	-3	·	·	2.7	6	-24	6217
COc1ccc(NC(=O)N(C)C[C@H]2Oc3c(NC(=O)NC4CCCCC4)cccc3C(=O)N([C@H](C)CO)C[C@@H]2C)cc1	·	5	6	2.4	2	-7	3736
COc1ccccc1CCNC(=O)c1ccccc1SCC(=O)N1CCCC1	·	-6	-4	-0.2	-2	-11	6521
CCc1ccc(NC(=O)CSc2nc(=O)n3cc(C)ccc3n2)cc1	-11	6	0	2.1	7	-3	·
CCOC(=O)c1sc(=S)n(-c2ccccc2Cl)c1SC	-1	1	0	1.0	38	-22	6821
C/C(=N\Nc1ccc([N+](=O)[O-])cc1)c1ccc(O)cc1	-2	·	·	·	·	-55	5019
CCOC(=O)c1c(NC(=O)c2ccco2)sc(C(=O)N2CCCC2)c1C	4	7	8	9.0	-10	-18	10135
C#Cc1ccc(CN2CCCC(C(=O)Nc3ccccc3Oc3cccnc3)C2)cc1 (configuration not stated)	7	·	·	·	·	-6	6367
O=C1c2ccccc2NC(c2ccncc2)N1c1ccccn1 (configuration not stated)	-7	9	4	-5.5	-1	0	3694
COc1cccc(NC(=O)Cn2c(=O)oc3cc(S(=O)(=O)N4CCCC4)ccc32)c1	-2	-12	1	-1.0	-9	-29	4817
CCOC(=O)c1c(NC(=O)/C=C/C(=O)O)sc(C)c1-c1ccc(C(C)(C)C)cc1	4	7	2	11	30	-20	4261
COc1ccc2oc(C(=O)OCC(=O)N(Cc3ccccc3)C(C)C)c(C)c2c1	-5	6	-1	1.2	3	-19	?
CCn1cc(C(=O)O)c(=O)c2cc(F)c(N3CCN(C(=S)NC(=O)c4ccc(F)cc4)CC3)cc21	-2	7	-11	86	84	·	3459
O=C(O)C1CCN(C(=O)c2cccc3ccccc23)CC1	2	5	12	3.8	5	9	3478
O=C(Nc1cc2c3c(c1)CC(=O)N3CCC2)c1ccc(Cl)cc1	7	10	5	1.3	2	-16	5214
O=C(CC1SC(=Nc2ccc3c(c2)OCCO3)NC1=O)Nc1ccc(F)cc1F (configuration not stated)	9	17	16	2.7	-3	-12	6359
CC(C)c1cc2c(c(O)c1O)[C@@]13CCCC(C)(C)C1CC2OC3=O (some centres not stated)	-1	·	·	26	14	-44	4852
COc1ccc2oc(C)c(C(=O)Cn3ccnc3)c2c1	-6	·	·	-2.2	3	-1	2859
CCNC(=O)C(=O)NCC1OCCCN1S(=O)(=O)c1ccc(F)cc1C (configuration not stated)	1	6	-2	2.7	6	-11	4301
COCCn1c(=O)[nH]c2cc(C(=O)NCCc3ccc(OC)c(OC)c3)ccc2c1=O	2	12	13	-2.8	0	-22	4041
COc1ccc(OC)c(CN2CCCC(CCC(=O)N(C)CCc3ccccn3)C2)c1 (configuration not stated)	10	9	0	4.0	4	3	3406
COc1ccccc1NC(=O)CC(NCCN(C)C)C(=O)O (configuration not stated)	13	6	6	0.9	1	3	15385
COC(C[C@@H]1O[C@@H]1[C@@H](O)[C@@H](C)OCc1ccccc1)OC	-6	·	·	·	·	-28	4194
COc1ccc(OC)c(-n2cc3c(=O)n(C)c(=O)n(C)c3c2)c1	-1	·	·	3.3	7	-16	1983
CCN(CC)c1ccc(-n2c(C)cc(C=O)c2C)cc1	8	·	·	-2.4	-11	-7	2437
CC(=O)O/N=C(\N)c1ccc(-c2csnn2)cc1	3	·	·	·	·	-49	4564
Cn1c(COc2cccc3cccnc23)nnc1SCC(=O)O	-3	13	6	5.2	4	-32	3967
Cc1ccc(NC(=O)C2Cc3ccccc3CN2C(=O)c2ccccc2)cc1Cl (configuration not stated)	3	-2	4	4.6	-3	-12	2546
COCCn1c(SCC(=O)Nc2cccnc2Cl)nc2ccccc21	·	20	33	4.2	10	-23	3844
CC(NC(=O)C12CC3CC(CC(O)(C3)C1)C2)c1ccccc1 (configuration not stated)	0	2	-4	-0.5	-1	-5	5577
Cc1ccccc1CSc1nc2ccccc2c(=O)[nH]1	-6	10	4	-1.4	-8	2	1996
O=C(NNC(=S)NC(=O)c1cccs1)c1cccnc1	7	-3	3	16	8	-9	4938
Cc1ccc(-n2nc3c(c2NC(=O)c2ccc4c(c2)OCO4)CS(=O)(=O)C3)cc1	-4	8	4	0.8	12	-17	4001
CCOC(=O)c1nnc(-c2cccs2)nc1Oc1ccccc1C(=O)OC	-4	12	-11	-0.5	0	-11	·
Cc1ccc(Nc2nnc(SCC(=O)Nc3ccccc3[N+](=O)[O-])s2)cc1	7	9	1	5.0	0	-28	8028
Cc1ccc(-c2nc(C(=O)O)cs2)cc1	2	14	5	4.8	4	-15	4155
CCCc1cc(C(=O)Nc2ccccc2C(=O)OC)no1	-2	4	-10	6.0	8	-3	6528
COc1cc(CNCc2ccc(OC)c(OC)c2OC)cc(OC)c1	·	8	3	4.2	-3	-6	8205
Cc1[nH]n(-c2ccccc2)c(=O)c1-c1ccc(Cl)cc1	0	·	·	4.8	-2	-1	4665
CC(=O)c1ccc(OC(C)C)c(Cc2c(O)nc(N)[nH]c2=O)c1	-5	7	11	3.0	1	0	2036
